Source: PubChem
LANA-nucl inh: inhibitors of KSHV LANA binding to nucleosomes. FITC-LANA1-23 / chicken nucleosome fluorescence polarization; hits give low values. z-score (no concentration beside the values). AID 720717. 51,000 compounds, 0.3% hits;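 active = both repeat wells score below -2 in polarization z-score versus plate sample wells, excluding overly bright wells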;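 also: 100 nL library stock added to about 30 µL; numbers are from one replicate; some results filed as inactive read as strong as hits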
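test system = FITC-LANA peptide and chicken nucleosomes | amount = 240 nM purified chicken nucleosomes (480 nM peptide binding sites), final | reagent = 50 nM FITC-LANA1-23 probe | medium = TEN-BT buffer, pH 7.5 | doses = single compound addition by pin transfer, 100 nL per well | timing = 10–45 min, room temperature | detection = fluorescence polarization | repeats = duplicate plates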
Ab BasE inh: inhibitors of Acinetobacter baumannii siderophore enzyme BasE; purified BasE, fluorescence polarization binding displacement; 84,000 compounds, 0.1% hits; inhibition, % (test concentration not listed);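 active = both replicates above 25% with normal brightness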;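 also: 0% = negative plate control signal and 100% = positive plate control signal; stock transfer was 100 nL into about 30 µL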
* hit, by the source's call; · = no result given; & = joins results of further samples.

SMILES | LANA-nucl inh | Ab BasE inh
c1csc(CNC23CC4CC(CC(C4)C2)C3)c1 | · | 0.2
CCN(CC)c1nc(-c2ccccc2)nc(-c2ccccc2)c1C#N | -0.299 | ·
Cc1nnc(SCC(=O)O)n1N | -1.15 | 1.1
CC(C)(C)c1ccc(NC(=O)Nc2cc(C(F)(F)F)ccc2N2CCCC2)cc1 | -0.202 | ·
CC(C)(Oc1ccc(C2CC2(Cl)Cl)cc1)C(=O)O (stereo unspecified) | -0.4 | -3.8
N#Cc1ccc(OCC(O)CNCCC2=CCCCC2)cc1 (stereo unspecified) | · | -1.3
O=C(NC1CCCCC1)NC12CC3CC(CC(C3)C1)C2 | · | 2.4
C/C(=N\OCC(=O)NC12CC3CC(CC(C3)C1)C2)c1cc2ccccc2o1 | · | 0.9
N#Cc1cnc(SCc2ccccc2)nc1N | 0.399 | 0.4
COc1cccc(C2NC(CC(C)C)(C(=O)O)C3C(=O)N(c4ccc(F)cc4)C(=O)C23)c1 (stereo unspecified) | -1.14 | 0.2
CCN(CC)C(=O)c1sc(NC(C)=O)c(C(=O)OC)c1C | -0.2 | 1.3
c1cnn(-c2ccc(-c3cnco3)cc2)c1 | -0.09 | ·
COc1ccccc1-c1nnn(CC#N)n1 | 0.579 | 1.4
COc1ccc(NC(=O)CC2C(=O)NCCN2C(=O)c2ccc(C(C)(C)C)cc2)cc1 (stereo unspecified) | · | -1.2
O=C(COC(=O)C1Cc2ccccc2CN1C(=O)c1ccco1)Nc1ccc(F)cc1 (stereo unspecified) | · | -0.4
Clc1ccccc1-c1nnc2sc(Nc3ccccc3)nn12 | 0.107 | 3.0
CN(C)C(CC(=O)Nc1ccc(Cl)c(Cl)c1)C(=O)O (stereo unspecified) | -0.752 | -0.9
Nc1c(NCCN2CCCC2)c2ccccc2oc1=O | 0.102 | 1.3
CN1C(=O)C(CC(=O)Nc2ccc3c(c2)Cc2ccccc2-3)N(C)C1=O (stereo unspecified) | 0.445 | 1.8
CN(C(=O)/C=C/c1ccco1)c1ccccc1C(=O)O | · | 1.7
Cc1ccc(-n2c3nc4ccccc4nc3c3c(=N)oc(C)nc32)cc1 | · | 0.4
O=C(CSc1ncnc2sc3c(c12)CCCC3)c1cccs1 | · | -2.0
Cc1ccc2[nH]cc(NC(=O)NCCc3ccccc3)c(=O)c2c1 | -1.17 | -0.5
Cc1cc(=O)n(CCCO)c(O)c1C#N | 0.0415 | -0.1
CCCc1nnc(SCC(=O)NC2CC3CCC2C3)o1 (stereo unspecified) | -0.936 | 2.4
Cc1cc(C(=O)CC2=C(O)CC(C)(C)CC2=O)c(C)n1Cc1cccs1 | · | 0.6
C=CC[n+]1ccccc1/C=N/O | · | 0.5
COc1ccc(NC(=O)CN2CCC(c3nc4ccc(Cl)cc4[nH]3)CC2)c(OC)c1 | 0.702 | 0.6
COc1c(F)c(F)c(/C=C/CN2CCOCC2)c(F)c1F | -1.57 | 1.8
Cc1nn(C)c(C)c1CS(=O)(=O)c1ccccc1 | 0.716 | ·
CC(C)N(C(=S)Nc1cccnc1)c1ccccc1 | · | -0.3
CCOC(=O)c1oc2ccccc2c1N=Cc1c(O)n(CCOC)c(=S)[nH]c1=O | · | -0.6
Cc1nc2scc(C)n2c(=O)c1S(=O)(=O)NC1CCCCC1 | 0.31 | 2.1
O=C(CN1C(=O)c2ccccc2C1=O)c1ccc(F)cc1 | · | 0.3
O=C(Nc1ccccc1-c1ccccc1)NC1CCN(CC(=O)N2CCOCC2)CC1 | -0.608 | -1.1
O=C(Cn1cc(C(F)(F)F)ccc1=O)N1CCc2ccccc21 | · | 0.5
O=C1CC/C(=C\C(=S)N2CCOCC2)N1 | · | -1.0
Cc1cccc(N2C(=O)CSC23C(=O)N(CN2CCOCC2)c2ccccc23)c1 (stereo unspecified) | 0.053 | 2.7
COc1ccccc1NC(=O)C1=C(C)NC(=O)NC1c1ccco1 (stereo unspecified) | · | -0.8
S=C(Nc1cccc2ccccc12)NN1CCOCC1 | 0.704 | 1.1
COc1ccc(CCNC(=O)C2CCCN2S(=O)(=O)c2cccc3nsnc23)cc1OC (stereo unspecified) | -1.01 | 1.2
O=C(CC1COc2ccccc2O1)NCCc1ccccc1 (stereo unspecified) | 0.881 | -1.2
CN1/C(=C\C(=O)CSc2nc3ccccc3o2)C(C)(C)c2ccccc21 | · | -1.2
N#C/C(=C\c1ccc(-c2ccc(S(N)(=O)=O)cc2)o1)S(=O)(=O)c1ccccc1 | -0.707 | 0.1
CCCc1nn(C)c2c(=O)[nH]c(-c3cc(S(=O)(=O)N4CCN(C)CC4)ccc3OCC)nc12 | 0.0785&0.621&1.34&-0.108 | 0.5&1.3

Of the compounds above, 7 contain an aryl methoxy group:
SMILES | LANA-nucl inh | Ab BasE inh
COc1cccc(C2NC(CC(C)C)(C(=O)O)C3C(=O)N(c4ccc(F)cc4)C(=O)C23)c1 (stereo unspecified) | -1.14 | 0.2
COc1ccccc1-c1nnn(CC#N)n1 | 0.579 | 1.4
COc1ccc(NC(=O)CC2C(=O)NCCN2C(=O)c2ccc(C(C)(C)C)cc2)cc1 (stereo unspecified) | · | -1.2
COc1ccc(NC(=O)CN2CCC(c3nc4ccc(Cl)cc4[nH]3)CC2)c(OC)c1 | 0.702 | 0.6
COc1c(F)c(F)c(/C=C/CN2CCOCC2)c(F)c1F | -1.57 | 1.8
COc1ccccc1NC(=O)C1=C(C)NC(=O)NC1c1ccco1 (stereo unspecified) | · | -0.8
COc1ccc(CCNC(=O)C2CCCN2S(=O)(=O)c2cccc3nsnc23)cc1OC (stereo unspecified) | -1.01 | 1.2

More records
SMILES | LANA-nucl inh | Ab BasE inh
Cc1c(O)ccc(C(=O)CN2CCN(Cc3ccccc3)CC2)c1O | 0.0175 | 0.2
COC(=O)[C@H]1[C@H]2C[C@@H]3c4[nH]c5cc(OC)ccc5c4CCN3C[C@H]2C[C@@H](OC(=O)c2cc(OC)c(OC)c(OC)c2)[C@@H]1OC | 0.927&0.562&4.62 | -2.5&-2.9
CC(C)CCN(Cc1ccco1)S(=O)(=O)c1ccc(-c2ccc(=O)[nH]n2)s1 | 0.118 | 0.6
COc1ccc(/C=C/C(=O)Nc2ccc(N3CCOCC3)cc2)cc1OC | 2.36 | -1.6
CCn1c(C(=O)N2CCC(C(=O)N3CCN(c4ccccc4)CC3)CC2)cc2sccc21 | 0.122 | 1.0
O=C(c1cccs1)N1CCC(n2nc(-c3ccccc3)oc2=O)CC1 | -0.421 | -0.5
Cc1cc2c(=O)[nH]nc(N)c2c(=O)[nH]1 | -0.253 | 1.6
Cc1ccc(NC(=O)c2cnc(SCC(=O)NCc3ccc4c(c3)OCO4)n(C)c2=O)cc1 | 0.715 | 0.9
Cn1cc(/C=C2\SC(=O)NC2=S)c2ccccc21 | 2.05 | 0.0
COc1ccccc1/C=N/n1c(SCC(=O)O)nnc1C1CCCCC1 | · | 0.9
COc1ccc(NC(=O)CCc2ccc(C)o2)cc1 | -0.152 | 1.1
CC(=O)OCC12COC(C)C(C(C)=CC1C)C2C (stereo unspecified) | -0.667 | 2.8
OCCNC(=S)c1ccccc1 | · | -0.2
Nc1nc(CSc2nc3ccccc3o2)cs1 | -0.366 | 0.8
CC(C)(C)OC(=O)N1CCCC1C(=O)Oc1ccc2c(c1)oc(=O)c1ccccc12 (stereo unspecified) | · | 0.5
Clc1nc(N2CCCc3ccccc32)nc(N2CCCc3ccccc32)n1 | · | 1.5
O=C(O)COC12CC3CC(CC(C3)C1)C2 | 1.48 | 3.3
CCCN1CCC(N2CCN(CCO)CC2)CC1 | -1.06 | -0.3
c1ccc2[nH]c(-c3cscn3)nc2c1 | 0.986&0.0995&0.253 | -0.5&1.4
CC1CCCC(C)N1C(=O)CSCc1cccc(S(=O)(=O)N2CCOCC2)c1 (stereo unspecified) | · | -1.1
O=C(NC1CCNCC1)C1CCCC1 | 0.066 | 2.3
CC1=CC(=C(C#N)C#N)C=C(c2ccccc2)N1Cc1ccco1 | 0.231 | -0.8
CSC(=C(C#N)C#N)N1CCCC1 | · | -0.4
CCNCc1ccc2c(c1)OCO2 | · | 0.4
COc1ccc(-c2[nH]ncc2C=C(C#N)C#N)cc1 | 0.551 | -3.0
CC(=O)N(/C=C1\Sc2ccccc2C1=O)c1ccccc1 | 2.51 | -12.6
CN1C(=O)/C(=C\c2ccccc2)Sc2ccc(C(=O)N3CCN(c4ccccn4)CC3)cc21 | -0.388 | -2.0
CCCn1c(N)c(C(=O)COC(=O)c2cccc(NC(=O)OC(C)(C)C)c2)c(=O)[nH]c1=O | · | -8.3
FC(F)(F)c1ccc(NC2=NCCC2)cc1 | · | -0.9
COC(=O)c1ccccc1NC(=O)CCCN1C(=O)CSc2ncccc21 | -0.81 | -1.5
Cc1ccc(C(=O)N(C)C2CCN(C)CC2)cc1C | · | 0.4
O=C(NC1Cc2ccccc2C1)c1ccc(Oc2cc(Cl)cc(Cl)c2)o1 | · | 0.8
Cc1oc2ncn(CC(C)C)c(=O)c2c1C(=O)N1CCCC1 | · | 0.1
O=C1CCC/C1=C\c1ccccc1 | · | 1.6
Nc1nc(CCC(=O)OCc2c(F)cccc2Cl)nc(Nc2ccccc2)n1 | · | -2.7
CCN(CC)S(=O)(=O)c1ccc2[nH]c(=O)cc(C(=O)N3CCCSc4ccccc43)c2c1 | · | 0.3
CSc1cc(-c2ccccc2)[nH]c(=O)c1C#N | -0.969 | ·
CCN(CC(=O)NCc1cccs1)C(=O)c1cn(-c2ccccc2)nc1-c1cccs1 | · | -3.0
CC1Cc2ccccc2N1C(=O)CC(C#N)(C#N)CC(=O)N1c2ccccc2CC1C (stereo unspecified) | · | -2.2
O=C(/C=C/c1ccc(S(=O)(=O)N2CCCCCC2)cc1)N1CCN(C2CCS(=O)(=O)C2)CC1 (stereo unspecified) | · | 3.5
CC(C)(C)c1ccc(/C(N)=N/O)cc1 | · | 1.0
O=C(Nc1ccccc1)Nc1nncs1 | 0.13 | 1.3
CN(C)S(=O)(=O)c1cccc(C(=O)NCC2COc3ccccc3O2)c1 (stereo unspecified) | · | -1.1
O[C@H](CSc1ncccn1)C(F)(F)F | 0.0705 | ·
COC(=O)c1c(N)n(-c2ccc(F)c(F)c2)c2nc3ccccc3nc12 | · | -0.3
O=C(NC1CCS(=O)(=O)C1)C(c1ccccc1)c1ccccc1 (stereo unspecified) | 1.66 | 0.9
c1ccc(OCc2ccc(CCCN3CCOCC3)cc2)cc1 | · | -1.5
CC1NC(=S)N(C2CCCCC2)C1=O (stereo unspecified) | 0.017 | 3.5
CCCCS(=O)(=O)N1CCN(c2cc(Cl)ccc2C)CC1 | 1.43 | 0.9
CCOC(=O)C1C(c2ccc(Br)cc2)C(C(=O)OCC)C(O)(C(F)(F)F)NC1(O)C(F)(F)F (stereo unspecified) | -0.395 | 0.3
C=CCSc1nnc(-c2oc3nc(-c4ccccc4)cc(-c4ccccc4)c3c2N)n1C | · | -2.1
Cc1ccc2c(N3CC4CCC(CC4)C3)cc(C(F)(F)F)nc2c1 | · | 3.6
CC(C)(C)N(Cc1ccccc1)C(=O)CSc1nc2ccccc2o1 | · | -0.9
CC(C)(C)C(=O)N(Cc1ccccc1)Cc1ccccc1 | 0.429 | 3.5
Cn1c(-c2ccccc2)c(C(=O)CN2CCN(C(=O)c3ccco3)CC2)c2ccccc21 | · | -2.2
CC(OC(=O)C1CC2CCCC(C1)C2=O)C(=O)N1c2ccccc2CC1C (stereo unspecified) | · | -1.1
Cc1nc(C)c(-c2csc(Nc3ccc(O)c(C(=O)O)c3)n2)s1 | -0.925 | 11.4
CCn1cc(C(=O)O)c(=O)c2cc(F)c(F)cc21 | · | 0.0
CC(=O)N1N=C(c2c(C)coc2C)CC1c1ccc(Cl)cc1Cl (stereo unspecified) | · | 1.8
O=C(CN1C(C(=O)c2ccccc2)=C(N2CCOCC2)c2ccccc2S1(=O)=O)c1ccccc1 | · | 0.2
Next section
SMILES | LANA-nucl inh | Ab BasE inh
CN(C)c1ccc(/C=C2\CCC/C(=C\c3ccccc3)C2=O)cc1 | · | -39.3
Cc1cnc(NC(=O)CC(C)c2ccccc2)s1 (stereo unspecified) | · | 2.0
O=C(O)c1cccc(-c2ccc3c(c2)OCO3)c1 | -0.133 | 3.4
CSc1nc2ccc(Br)cc2[nH]1 | -1.22 | 1.8
CCCOC(=O)c1cc(-c2ccc(/C=C3\C(=O)NC(=O)C(C#N)=C3C)o2)ccc1Cl | -0.466 | 1.9
Cc1cc(Cl)ccc1OCCCC(=O)Nc1ccc(S(=O)(=O)Nc2ncccn2)cc1 | · | 3.0
Cn1c(SCc2ccccc2)nnc1C1CCCN(C(=O)Cc2ccc3c(c2)OCO3)C1 (stereo unspecified) | -0.999 | 3.8
CCc1nccn1C(=O)CCCC(=O)O | · | -0.7
CC(C(=O)NCc1ccccc1)n1c2ccccc2c2cn[nH]c(=O)c21 (stereo unspecified) | -1.42 | -0.7
CC1Oc2ccccc2N(CC(=O)NC2CC2)C1=O (stereo unspecified) | -0.47 | 0.2
COC(=O)c1c(-c2ccc(C(C)(C)C)cc2)csc1NC(=O)C1C2CCC(O2)C1C(=O)O (stereo unspecified) | · | 3.5
O=C(CCCn1c(=O)oc2ccccc21)N1CCCc2ccccc21 | · | 0.5
CCOC(=O)N1CCN(c2c(F)cc3[nH]c(=S)[nH]c3c2Br)CC1 | -1.08 | 0.6
CN(C)/N=C(\N)c1ccc(Cl)cc1 | · | 1.2

Single records, as listed above. Values in the order: LANA-nucl inh	Ab BasE inh
`Cc1cc(Cl)ccc1OCCCC(=O)Nc1ccc(S(=O)(=O)Nc2ncccn2)cc1` is listed as ·	3.0
`O=C(O)c1cccc(-c2ccc3c(c2)OCO3)c1` is listed as -0.133	3.4
`CSc1nc2ccc(Br)cc2[nH]1` is listed as -1.22	1.8
`O=C(CCCn1c(=O)oc2ccccc21)N1CCCc2ccccc21` is listed as ·	0.5

This is a subset (hit frequency here may not be typical).
